Sfp PPTase inh = qHTS Assay for Inhibitors of Bacillus subtilis Sfp phosphopantetheinyl transferase (PPTase); Potency, µM, without a hit: max response, negative = inhibition, usual class: inhibitors; AID 1490, 2009; Biochemical Sfp PPTase activity, qHTS; actives 3.5% (n = 310,000); 4'-phosphopantetheinyl transferase ffp (Bacillus subtilis), Q9F4F7; active = well fitted inhibition curve with a large enough effect; inconclusive = small, poorly fitted or top-dose-only effect, or another doubt; inactive = no such curve, though single readings can be large or run the other way;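 note: the enzyme is Sfp with the accession as filed and its product quenches rhodamine fluorescence; potency is the fitted concentration of half-maximal effect; 0% = enzyme reaction without inhibitor and -100% = no enzyme wells; top concentration of the series not given in the record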
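After 15 min at room temperature with compound, 15 nM Sfp received 5 uM rhodamine-CoA plus 12.5 uM BHQ-2-ybbR (50 mM Hepes pH 7.6, 10 mM MgCl2). Rate came from the fluorescence difference over 30 min, ex 525/em 598 nm.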
gsp agonist = qHTS for Agonist of gsp, the Etiologic Mutation Responsible for Fibrous Dysplasia/McCune-Albright Syndrome: qHTS | gsp mutant cells, cAMP HTRF, 30 min; control for the full effect not named in the record | Potency, µM (highest dose often 76.9 µM), inactives show top-dose activation (cAMP increase), hits mostly activators | actives 0.13% (n = 340,000); active = well fitted activation curve with a large enough effect; inconclusive = small, poorly fitted or top-dose-only effect, or another doubt; inactive = no such curve, though single readings can be large or run the other way; cell line not stated here;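 note: phosphodiesterase inhibitor Ro 20-1724 added with compounds to block cAMP breakdown; potency is the fitted concentration of half-maximal effect; nearly all actives have a fitted effect of over 60% in size; about a fifth of the inactives were tested at one dose only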
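Cells stably selected in G418 were plated at 2000/well, grown 16-24 hr, then given compounds in DMSO with the PDE inhibitor […] (300 uM solution added) for 30 min at 37C; cAMP was read by HTRF.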
gsp antagonist = qHTS for Antagonists of gsp, the Etiologic Mutation Responsible for Fibrous Dysplasia/McCune-Albright Syndrome: qHTS | actives 0.4% (n = 340,000) | Potency, µM (doses to about 76.9 µM), inactives show at the top dose activity change, negative = inhibition, usual class: inhibitors | AID 624288, 2012 | gsp-mutant cells, cAMP HTRF, 30 min; control for the full effect not named in the record; active = falling curve of any shape with a large fitted effect; inconclusive = falling curve, mostly with a smaller effect; inactive = flat or rising curve; cell line not stated here;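 note: intracellular cAMP measured with PDE inhibitor Ro 20-1724 present during compound exposure; potency is the fitted concentration of half-maximal effect; % is set by controls: 0 for no effect and ±100 for the full control effect; nearly all actives have a fitted effect of over 65% in size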
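G418-selected cells were plated in DMEM/10% FBS for 16-24 h at 37C, then treated with compounds plus the PDE inhibitor […] (300 uM solution added) for 30 min at 37C. Intracellular cAMP was measured by HTRF after 30 min lysis at room temperature.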
Menin-MLL FL inh = qHTS Assay for Inhibitors Targeting the Menin-MLL Interaction in MLL Related Leukemias: Competition With Fluorescein Labeled MLL-derived Peptide; Fluorescence polarization, fluorescein-MLL peptide displacement from menin; FP activity change, % at 61.4 µM; 290,000 tested, under 10 active; AID 1766, 2009; inconclusive = falling polarisation curve, or a change in total fluorescence; inactive = total fluorescence flat and polarisation flat or rising; no compound was filed as active; the % refers to the polarisation; negative = inhibition;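 note: % of control where 0% means no effect; inhibitors lower the polarisation; unlabelled MLL peptide was the positive control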
ClpP mod = qHTS Assay for Activators of ClpP; ATP-dependent Clp protease proteolytic subunit (Bacillus subtilis (strain 168)), P80244; purified B. subtilis ClpP, FRET peptide cleavage, 20 min; Potency, µM (series often up to 57.5 µM), inactives show at the top dose activity change, negative = active; actives 1.9% (n = 340,000); active = well fitted falling curve with a large enough effect; inconclusive = small, poorly fitted or top-dose-only effect; inactive = no such curve, though single readings can be large or run the other way; note: potency is the fitted concentration of half-maximal effect; the source files actives as falling curves though it sought activators and does not explain the sign; nearly all actives have a fitted effect of over 65% in size; many hits overshoot -100%
Target sequence (P80244 whole entry, looked up): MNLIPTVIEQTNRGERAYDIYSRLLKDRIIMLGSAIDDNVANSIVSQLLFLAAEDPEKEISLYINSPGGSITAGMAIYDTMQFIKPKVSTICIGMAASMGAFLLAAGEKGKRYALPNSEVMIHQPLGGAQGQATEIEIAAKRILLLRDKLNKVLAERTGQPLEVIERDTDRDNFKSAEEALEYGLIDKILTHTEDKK
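ClpP 10 microg/mL final, pH 8 Tris/KCl buffer with BSA, glycerol, Tween-20; compound pinned in; FRET-FV substrate; RT 20 min; Ex320/Em430; ΔFRET vs ADEP 5.8 microM, DMSO, no enzyme.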
TRPV1 PAM = HTS Assay for Compounds that Act as Potentiators of the Vanilloid Receptor 1. actives 0.02% (n = 320,000). Transient receptor potential cation channel subfamily V member 1 (Homo sapiens), Q8NER1. AID 540277, 2011. potentiation, % at 8.33 µM. TRPV1-expressing cells, Fluo-8 calcium influx, capsaicin EC20 potentiation; host cell line not named in the record; control for the full effect not named in the record; active means potentiation above 80%; inconclusive means 30% to 80%; inactive means below 30%; note: 0% is about no effect
Target sequence (Q8NER1 whole entry, looked up): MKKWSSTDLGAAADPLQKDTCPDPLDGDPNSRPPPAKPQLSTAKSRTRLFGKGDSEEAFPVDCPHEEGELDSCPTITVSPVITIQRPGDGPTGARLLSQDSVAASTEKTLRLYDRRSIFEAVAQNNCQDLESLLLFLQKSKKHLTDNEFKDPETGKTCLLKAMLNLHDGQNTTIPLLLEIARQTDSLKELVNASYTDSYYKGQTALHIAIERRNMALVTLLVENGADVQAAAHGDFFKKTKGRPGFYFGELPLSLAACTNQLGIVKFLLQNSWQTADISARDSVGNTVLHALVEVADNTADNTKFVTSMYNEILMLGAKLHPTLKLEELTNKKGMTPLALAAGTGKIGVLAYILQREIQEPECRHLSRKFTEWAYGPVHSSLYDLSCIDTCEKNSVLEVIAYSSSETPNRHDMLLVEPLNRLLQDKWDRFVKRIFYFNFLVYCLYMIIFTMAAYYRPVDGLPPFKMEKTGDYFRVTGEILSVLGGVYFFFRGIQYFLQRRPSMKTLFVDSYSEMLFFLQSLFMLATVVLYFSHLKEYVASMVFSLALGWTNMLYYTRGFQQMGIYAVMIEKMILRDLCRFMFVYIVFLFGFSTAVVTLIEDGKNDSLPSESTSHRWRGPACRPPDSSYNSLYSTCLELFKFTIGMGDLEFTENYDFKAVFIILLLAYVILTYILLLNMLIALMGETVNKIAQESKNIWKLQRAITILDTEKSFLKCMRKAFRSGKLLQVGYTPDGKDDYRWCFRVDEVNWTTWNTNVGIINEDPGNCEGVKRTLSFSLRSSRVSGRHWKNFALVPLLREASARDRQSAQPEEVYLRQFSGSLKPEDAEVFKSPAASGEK
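Cells expressing TRPV1 were dye-loaded with Fluo-8 and read kinetically: 10 s baseline, 3 min after compound (agonist portion), then 2 min after EC20 capsaicin (allosteric enhancer portion). Calcium-bound dye fluorescence at 480/520 nm.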
D2 PAM = Beta-Arrestin HTS for Positive Allosteric Modulators of the Human D2 Dopamine Receptor: Potentiators; D(2) dopamine receptor (Homo sapiens), P14416; DiscoveRx D2 beta-arrestin cells, luminescence, 90 min; 100% = 57 uM dopamine signal; potentiation, % (concentration not given with the values); actives 0.23% (n = 360,000); AID 624464, 2012; active = potentiation of 50% or more; inconclusive = 30% to 50%; inactive = 30% or less;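 note: compound concentration not given in the record; tested on top of an EC20 dose of dopamine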
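PathHunter beta-arrestin assay in DiscoveRx D2 cells. Compounds were added with an EC20 of dopamine (50 nM final) for 90 min at 37 deg C. Luminescence was read 1 h after detection reagent, with 57 uM dopamine as the EC100 control.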
* = called active by the depositor; ? = inconclusive; / = no result given; [ ] = another dose, or the depositor's remark. Hits appear at their usual frequency; any-hit rate near 5.1%.

SMILES | Sfp PPTase inh | gsp agonist | gsp antagonist | Menin-MLL FL inh | ClpP mod | TRPV1 PAM | D2 PAM
O=[N+]([O-])c1ccc(C2CCCC/C2=N\OCc2cccc(F)c2)c([N+](=O)[O-])c1 (stereo unspecified) | -1% | -9% | -3% | -0.9 | -1.6% | 9 | -10
CC(=O)Nc1ccc2nc(NC(=O)c3ccc([N+](=O)[O-])s3)sc2c1 | 2% | / | / | 1.9 | / | 4 | /
CCCN1CCN(C(=O)c2ccc(S(=O)(=O)N(C)c3ccccc3OC)cc2)CC1 | / | -39%[inhibitor] | / | / | 0.7% | / | -21
O=C(Nc1cccc([N+](=O)[O-])c1)c1ccc2nc(N3C(=O)CCC3=O)sc2c1 | -4% | -2% | ? | 3.2 | 1.1% | -6 | -17
COc1ccc(CN(C)C(C)C(=O)Nc2ccc(S(=O)(=O)N3CCCCC3)cc2)c(OC)c1 (stereo unspecified) | / | 15% | -12% | / | / | / | -14
O=C(O)CC/C(=C\c1ccc(N2CCCC2)c([N+](=O)[O-])c1)c1nc2ccccc2s1 | -19% | 8%[15.4 µM] | -16% | 0.2 | 0.4% | 4 | -14
CC1C/C(=N/Nc2nc3ccccc3[nH]2)CC(C)(C)C1 (stereo unspecified) | -16% | ? | -1% | / | -3.0% | -8 | -8
C=CCn1c(COc2cccc(C)c2)nnc1SC(C)C(=O)NC1CC1 (stereo unspecified) | / | -22% | -5% | / | -1.3% | 1 | -3
O=[N+]([O-])c1ccccc1Nc1c2ccccc2nc2ccccc12 | 22% | ? | -5% | -3.5 | -1.1% | 5 | -5
COc1ccccc1NC(=O)c1ccc(NC2=NC3CS(=O)(=O)CC3S2)cc1 (stereo unspecified) | 7% | -45%[inhibitor] | -7% | -7.6 | -0.8% | -5 | -5
Cn1c(=O)c2cc(S(=O)(=O)N3CCC(c4ccccc4)CC3)ccc2n(C)c1=O | -16% | -43%[inhibitor] | 1% | -0.9 | -11% | -7 | 2
Nc1nc(=S)c2[nH]cnc2[nH]1 | -92% | / | -4% | -7.0 | 5.1% | -12 | 4
NNC(=O)c1[nH]c2ccc([N+](=O)[O-])cc2c1-c1ccccc1 | -2% | ? | 12% | ? | -1.7% | 21 | -2
COc1ccccc1CCc1nnc(CCC(=O)N(C)Cc2cccc3ncccc23)o1 | 9% | 0%[15.4 µM] | 13% | -0.5 | / | 7 | -1
COc1ccc(C2=NC(=O)/C(=C\c3cc(OC)c(OC)c(OC)c3)O2)cc1 | 11% | -44%[inhibitor] | 5% | 1.5 | 1.3% | -8 | -17
CCC(CC)c1nnc(NC(=O)CSCC(=O)Nc2cc(C)on2)s1 | / | 9% | 5% | / | 1.7% | -10 | -8
O=S(=O)(c1ccccc1Cl)N1CCC(Cc2ccccc2)CC1 | -9% | 14% | -8% | 0.7 | -0.5% | 10 | -2
Cc1ccc(NC(=O)/C(C#N)=C(\N)C(Cl)(Cl)Cl)nc1 | -9% | 2%[15.4 µM] | 13% | ? | -1.9% | 3 | 1
Cc1cc(C)n2nc(SCc3ccccc3F)nc2n1 | 0% | -15% | 5% | 0.6 | / | -23 | -3
Cc1ccc(C2CC(c3ccco3)=NN2S(C)(=O)=O)cc1 (stereo unspecified) | -18% | 9%[15.4 µM] | -6% | / | 0.3% | 17 | -1
COC(=O)CNC(=O)Cn1c(=O)n(Cc2ccc(F)cc2)c(=O)c2sccc21 | 12% | 6% | ? | 0.4 | -3.1% | 0 | -2
CC(C)CC(=O)Nc1ccccc1Oc1ccccc1 | 5% | 5% | 6% | 11 | 0.2% | -11 | -20
Nc1[nH]c(=O)nc2snnc12 | / | 5% | 12% | / | -1.9% | / | -9
COc1cccc(C(=O)/C=C2\NCCc3cc(OC)c(OC)cc32)c1 | 3% | 23% | 4% | 5.6 | / | 9 | -5
CCOc1ccc(NC(=S)Nc2ccc(OC)cc2)cc1 | -4% | 1%[15.4 µM] | 2% | 5.9 | / | 3 | -3
CC(=O)Nc1ccc(N=Cc2nc(-c3ccc(C)cc3)oc2O)cc1 | 6% | -32%[inhibitor] | -6% | 2.8 | 0.5% | -6 | -2
CCOC(=O)C1=C(N)OC2=C(C(=O)CCC2)C1c1ccc2c(c1)OCO2 (stereo unspecified) | / | -1%[15.4 µM] | -2% | / | / | / | -5
CN(C)CCCN(CCCN(C)C)C(=S)Nc1ccc(S(=O)(=O)N2CCOCC2)cc1 | 4% | 0% | 14% | 4.2 | 1.0% | ? | 0
COc1cccc(CNCCO)c1OCc1ccc(Cl)cc1 | -4% | 1% | 12% | -1.9 | 0.0% | 1 | -9
CC(CCCC(C)(C)O)NC(=O)c1ccc(OC2CCN(C(=O)C3CC3)CC2)cc1 (stereo unspecified) | 18% | -3%[15.4 µM] | 13% | -5.2 | 1.7% | 6 | 2
CC1CCCN(CCC(=O)c2ccccc2)C1 (stereo unspecified) | / | -14% | 8% | / | / | / | -7
CSCC[C@H](NC(=O)[C@@H]1Cc2ccccc2CN1)C(=O)NC[C@H]1CC[C@H](C(=O)O)CC1 | 1% | -30% | 19% | 2.0 | -1.1% | 27 | -4
CCN(CC)S(=O)(=O)c1cc(NC(=O)Cc2ccsc2)ccc1C | 6% | 3%[15.4 µM] | -2% | 7.3 | / | -11 | 2
COc1ccc(CNc2nc3ccccc3n2CCN2CCCCC2)cc1 | 11% | 5% | 5% | 1.0 | / | -17 | -20
FC(F)(F)c1cc(Cl)c2nnc(-c3ccccn3)n2c1 | 11% | -3% | 9% | 2.6 | -21% | 0 | -5
Cn1cnc([N+](=O)[O-])c1Sc1nc2ccccc2[nH]1 | ? | 1%[15.4 µM] | -4% | 0.8 | -5.9% | / | -3
Cc1ccc(NC(=O)CSCC(=O)N(C)CCOc2ccc(Cl)cc2)cc1 | / | 0% | -6% | / | 1.1% | 15 | -7
Cc1nc2c(C)cccc2cc1C(=O)N/N=C/c1cccnc1 | -9% | -6% | 2% | 7.4 | -5.4% | -17 | 18
COC(=O)c1ccc(NC(=S)NCCc2ccccc2)cc1 | 8% | -21% | -13% | 0.8 | 0.0% | -23 | -8
O=C(Nc1cccc(C(F)(F)F)c1)C(Sc1n[nH]c(=O)[nH]c1=O)c1ccccc1 (stereo unspecified) | 15% | -18%[15.4 µM] | -6% | 3.8 | / | -13 | 3
CC(CC(=O)Nc1ccccc1C(F)(F)F)c1ccccc1 (stereo unspecified) | -1% | 15% | 7% | 4.8 | -3.4% | -6 | 2
CCOc1ccc(N2CC(C(=O)N3CCc4ccccc4C3)CC2=O)cc1 (stereo unspecified) | 9% | -43%[inhibitor] | -7% | 0.9 | -2.4% | 8 | 1
CC(C)NC(=O)CSc1nc(N)c(-c2ccccc2)c(=O)[nH]1 | 13% | 9%[15.4 µM] | -2% | 1.0 | / | -11 | -4
Cn1c(=O)c(-c2ccccc2)cc2ccccc21 | / | 19% | -21% | / | / | / | -1
Cn1nc(C(=O)NCc2ccccc2CN2CCCC2)c2ccccc2c1=O | / | -7% | 11% | / | -0.4% | 18 | -31
CCCC1CCC(c2ccc(OCC)cc2)=CC1=O (stereo unspecified) | 7% | -40%[inhibitor] | -12% | 1.0 | -7.9% | -11 | 9
CCc1nc2scc(-c3cccs3)c2c(=O)o1 | -26% | ? | -6% | 2.6 | -3.8% | -1 | -5
O=[N+]([O-])c1cc2no[n+]([O-])c2cc1N1CCCCC1 | / | 13% | -8% | / | 1.4% | / | -11
Cc1nn(-c2ccccc2)c(C)c1C(=O)OCC(=O)Nc1ccccc1C(F)(F)F | / | -47%[inhibitor] | -13% | / | 0.1% | -6 | 8
CN(CC(=O)Nc1ccccc1C(=O)NC1CC1)Cc1ccccc1F | / | 2%[15.4 µM] | -5% | / | 1.0% | -8 | 0

(list continues)
SMILES | Sfp PPTase inh | gsp agonist | gsp antagonist | Menin-MLL FL inh | ClpP mod | TRPV1 PAM | D2 PAM
CC1(C)CC(=O)c2ccc(OCc3ccc([N+](=O)[O-])cc3)cc2O1 | -1% | -5%[15.4 µM] | -3% | 1.1 | -1.6% | / | -2
Cc1ccc(C(=O)NCC(=O)NC2CC2)cc1 | / | 0% | -13% | / | -3.4% | / | -13
Cc1c(C(=O)O)oc2ccc(S(=O)(=O)NCc3ccc4c(c3)OCO4)cc12 | 13% | -15% | 9% | 2.1 | -7.7% | -21 | 1
Cc1cccc(C(=O)NCCCNC(=O)c2cccc(C)c2)c1 | ? | 4%[15.4 µM] | 0% | -13 | -2.4% | 19 | -13
COc1cc(CNc2ccc3[nH]c(=O)[nH]c3c2)cc(Br)c1OCC(=O)NC(C)(C)C | -10% | -6% | 0% | 2.2 | 82% | -6 | 6
Cc1ccc(S(=O)(=O)Nc2ccccc2F)cc1C(=O)N1CCCC1 | / | -11% | -6% | / | 0.2% | 3 | -2
Cc1cc(C)nc(N(C#N)Cc2ccc(Cl)cc2)n1 | 11% | 29%[15.4 µM] | -31% | -1.9 | -1.1% | 6 | -5
O=C(CN1C(=O)c2ccccc2C1=O)Nc1ccccc1C(=O)N1CCCC1 | 17% | -27% | 8% | 2.2 | -0.3% | 1 | 0
Cc1nc2ccc(S(=O)(=O)NC(C(=O)NCc3cccs3)C(C)C)cc2s1 (stereo unspecified) | 5% | 3% | 0% | -1.2 | 0.1% | -4 | -4
COc1ccccc1OCCCCN1CCN(C(c2ccccc2)c2ccccc2)CC1 | -8% | 14%[15.4 µM] | -14% | 5.7 | -1.0% | -12 | -14

Source: PubChem BioAssay (National Center for Advancing Translational Sciences (NCATS))
